RE007 growth inh = qHTS Assay for Inhibitors of the HIV-1 protein Vpr. S. pombe RE007 Vpr strain, BacTiter-Glo ATP luminescence, 24 h; control for the full effect not named in the record. Potency, µM (top dose mostly 92.2 µM), without a hit: at the highest dose activity change, negative = less growth. hit rate 0.21% among 360,000. AID 651644, 2012; active = well fitted falling curve with a large enough effect; inconclusive = small, poorly fitted or top-dose-only effect; inactive = no such curve, though single readings can be large or run the other way;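 also: nearly all actives have a fitted effect of over 50% in size; the assay follows cell death caused by Vpr and the record does not say whether a fall means rescue or toxicity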
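Fission yeast strain RE007, carrying one chromosomally integrated HIV-1 vpr copy, was seeded at OD 0.01 in PMG+AL medium with 23 nL pinned compound. After 24 h at 30 °C and 99% humidity, viability was read by BacTiter-Glo luminescence.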
2A StopGo = High Throughput Screening for Foot and Mouth Disease Virus Antivirals | hit rate 1.2% among 410,000 | AID 1159524, 2015 | human cells with a luciferase reporter of 2A StopGo recoding; control for the full effect not named in the record | Potency, µM (top dose mostly 57.9 µM), for the others: at the highest dose signal change, negative = less light; active = well fitted falling curve with a large enough effect; inconclusive = small, poorly fitted or top-dose-only effect; inactive = no such curve, though single readings can be large or run the other way; tested in HEK293T cells; also: nearly all actives have a fitted effect of over 45% in size; luciferase light after 4 h
The depositor's hits bear a star; ? = inconclusive; [ ] = dose if it differs, or a comment. % is scaled to controls: 0 for no effect and ±100 for the full control effect; potency is read from the fitted curve at half-maximal effect. These rows are one share of the data; rates above refer to the full screens.

item	Structure	RE007 growth inh	2A StopGo
1	CCOC(=O)C1=CCN(S(=O)(=O)c2ccccc2C)C1c1ccccc1 (stereo not drawn)	11%	-10%
2	CC[C@H](CO)Oc1cc(NCc2cccc(N)c2)c2ncn(C(C)C)c2c1	?	-17%
3	CCCNC(=O)C1(C)CCN(Cc2ccc(-c3ccccc3)o2)C1 (stereo not drawn)	-1%	-13%
4	CCOC(=O)C1=C[C@@H](C)N(S(=O)(=O)c2ccc(C)cc2)[C@H]1c1ccccc1	9%	-22%
5	CCOC(=O)[C@]12CCC=C1N(Cc1ccc3c(c1)OCO3)C(=O)[C@H](CC(=O)N1CCN(C(=O)c3ccco3)CC1)C2	18%	-12%
6	CCNC(=O)c1cc2c(c(-c3cccc(-c4cncnc4)c3)n1)[C@@H](CCO)N(C(C)=O)C2	-7%	-26%
7	CCOC(=O)C1(C)CCCCCN1C(=O)c1ccc(N(C)C)cc1 (stereo not drawn)	-11%[18.4 µM]	-10%
8	Cc1ccnc(Nc2ccc(CCO)cc2)n1	-1%	28%
9	Cc1ccc(F)c(S(=O)(=O)NC(=O)C2(C)CCN2C(=O)c2ccc(C(F)(F)F)nc2C)c1 (stereo not drawn)	1%	-12%
10	c1cc2cc(CNc3nc(NCC4CC4)nc4ccsc34)ccc2o1	-19%	?
11	CC(=O)OC[C@@H]1CN(Cc2ccccc2)C[C@H](n2cnc3c(NCC(C)C)ncnc32)O1	-14%	-7%
12	O=C1C2C3CC(C(Br)C3Br)C2C(=O)N1c1nccs1 (stereo not drawn)	-8%	-1%
13	CCc1nc2ccc(C(=O)N3CCNC(=O)C3)cn2c1N(C)CCC(C)C	1%[18.4 µM]	-6%
14	OCCCn1c(C(CO)Nc2nc(-c3ccc(Cl)cc3)cs2)nc2ccccc21 (stereo not drawn)	-26%	-13%
15	CCN1C[C@@H]2[C@@H]3C(=O)N(Cc4ccccc4)C(=O)[C@@H]3[C@](Cc3ccccc3)(C1=O)N2C(=O)c1ccc(Cl)c(Cl)c1	-7%	-23%
16	CCCCN1CCC(CN2C(=O)C(=O)NC[C@@H]2Cc2ccccc2)CC1	0%	-16%
17	O=C(O)c1ccccc1C(=O)OC1CC2CCC1C2 (stereo not drawn)	-8%	-3%
18	COc1ccc(Cl)cc1Cn1c(C)c(C(=O)NCc2ccc(C#N)cc2)sc1=O	5%[18.4 µM]	?
19	CCNC(=O)C1(C)CCN(Cc2ccc(C(=O)OCC)o2)C1 (stereo not drawn)	-8%	-3%
20	CCOC(=O)[C@]12CCCC=C1N(Cc1ccco1)C(=O)[C@H](CC(=O)NCc1cccs1)C2	-8%	10%
21	Cc1cc(C2=CC(=O)C[C@H](c3ccc(F)cc3)C2)ccc1F	2%	-3%
22	O=C(CC[C@H]1O[C@@H](n2ccc(=O)[nH]c2=O)[C@H](O)[C@@H]1O)N[C@H](Cc1ccccc1)C(=O)NC1CCCCC1	3%	-12%
23	Cc1ccc(Cn2c(C)c(C(=O)NCc3ccc(Cl)c(Cl)c3)sc2=O)cc1	4%[18.4 µM]	-16%
24	COc1ccc(NC(=O)C2(C)CCN2C(=O)Cc2ccccc2)cc1OC (stereo not drawn)	-5%	-11%
25	CCc1nc2ccc(C(=O)N3CCN(C(=O)c4ccco4)CC3)cn2c1N(CC)CCOC	-1%[18.4 µM]	-11%
26	Nc1nc2ncccn2c1-c1ccccc1	6%	-12%
27	CCOC(=O)C1=C(COc2ccccc2)NC(=O)NC1c1ccc2ccccc2c1 (stereo not drawn)	17%	0%
28	Cc1ccc(S(=O)(=O)N2C[C@H]3C(=O)C[C@@H](c4ccc(Cl)cc4)N(S(=O)(=O)c4ccc(C)cc4)[C@H]3C[C@H]2c2ccc(Cl)cc2)cc1	-10%	-18%
29	CC(C)(C)n1nnnc1C(c1ccccc1)N1CCN(c2ncccn2)CC1 (stereo not drawn)	3%	-6%
30	CN(C)Cc1csc(Nc2ccc(C(=O)c3ccccc3)cc2)n1	-24%	0%
31	Cc1cn(CC(=O)NCc2ccc(N(C)C)cc2)c(=O)[nH]c1=O	4%	?
32	CC(=O)Nc1ccccc1NC(=O)c1ccc2c(c1)OCO2	0%	-6%
33	CC(=O)c1ccc(Nc2nc(C(N)CC(C)C)cs2)cc1 (stereo not drawn)	5%	-17%
34	Cc1ccc(C2NC(=S)N3C(c4ccc(C)cc4)NC(=S)N23)cc1 (stereo not drawn)	20%	82%[activator]
35	Cc1cccc(C)c1NC(=O)C(c1ccncc1)n1c(=O)c(-c2ccccc2)nc2ccccc21 (stereo not drawn)	-29%	18%
36	CC1(C(=O)NS(=O)(=O)c2cccc(F)c2)CCN1C(=O)C1CCCCC1 (stereo not drawn)	8%	0%
37	O=C1Nc2ccccc2C(=O)N(Cc2ccccc2)C1C(=O)NC1CC1 (stereo not drawn)	16%	-21%
38	O=CC(=Cc1ccccc1)c1ccccc1	-6%	-18%
39	O=C(Nc1cccc(C(F)(F)F)c1)c1csc(COCCO)n1	1%[18.4 µM]	11%
40	COC(=O)C[C@@H]1C=C[C@H](NC(=O)Cc2ccccn2)[C@@H](CO)O1	-5%	-14%
41	O=C(C[C@H]1CC[C@@H](NC(=O)C2CC2)[C@@H](CO)O1)NCc1ccccc1Cl	-9%	-23%
42	O=C(Cc1ccccc1F)Nc1cc(S(=O)(=O)N2CCCCC2)ccc1N1CCOCC1	5%	21%
43	CCO[C@@H]1OC(C(N)=O)=C[C@H](C(C)(C)C)[C@H]1CCCO	1%	-14%
44	O=c1[nH]c(CN2CCCCC2)ccc1O	-8%	9%
45	CC(=O)NC(C)(c1ccccc1)c1nc(-c2cnc3ccccc3c2)cs1 (stereo not drawn)	10%[18.4 µM]	7%
46	Cc1ccc2nc(CN(C)C(=O)[C@H]3O[C@@H](n4ccc(N)nc4=O)[C@H](O)[C@@H]3O)[nH]c2c1	6%	-12%
47	Cc1ccc(CNc2nc3cc(-c4ccccc4)sc3c(=O)n2C)c(C)c1	1%	?
48	CC(C)=CCOc1ccc([C@@H]2COc3c(ccc4c3C=CC(C)(C)O4)C2)c(O)c1	-11%	?
49	CCCC[C@@H]1CCCO[C@@](C(=O)NCc2cc(C)n(C)n2)(C(F)(F)F)C1	-5%	-7%
50	COc1ccc(C(=O)C[C@@H]2OC3CCCCC3N2S(=O)(=O)c2ccc(C)cc2)cc1OC (stereo partly drawn)	-4%	-9%
51	CC(=O)c1cccc(NC(=O)c2ccc(-n3cncn3)c3ccoc23)c1	3%	33%[activator]
52	N#Cc1cccc(C2CC(OCCF)=CC(=O)O2)c1 (stereo not drawn)	-5%	-16%
53	Cc1ccc(-c2nc3c(Cl)cc(C(F)(F)F)cn3c2Cc2cccc(F)c2)cc1	-6%	1%
54	C[C@@H]1[C@H](c2ccccc2)Oc2ccc(Cl)cc2S(=O)(=O)N1CC1CCCN1C(=O)OC(C)(C)C (stereo partly drawn)	4%	0%
55	COC(=O)c1ccc2nc(-c3ccc(OC)c(OC)c3)c(Cc3ccc(C)cc3)n2c1	-22%	-15%
56	COc1ccc(Cc2c(C(C)(C)C)nc3c(C)cc(Br)cn23)c(C)c1	-20%	-13%
57	CC(C)C(=O)N1CCCC1(C)C(=O)Nc1cccc(Oc2ccccc2)c1 (stereo not drawn)	1%	-14%
58	CCN1CCC(C(=O)NC(c2ccc(F)cc2)c2ncccc2C)CC1 (stereo not drawn)	3%	-5%
59	COc1ccc(CN2C(=O)C(CC(=O)NCc3cccs3)CC(C(=O)N(C(C)C)C(C)C)=C2C)cc1 (stereo not drawn)	15%	-22%
60	Cc1cccc(CN2CCN(C3CN(Cc4cn(Cc5cccc(Cl)c5)nn4)S(=O)(=O)C3)CC2)c1 (stereo not drawn)	?	?

Other compounds follow:
item	Structure	RE007 growth inh	2A StopGo
61	CC1(c2ccc(Cl)cc2)NC(=O)N(CC(=O)N2CCN(C(=O)c3cccs3)CC2)C1=O (stereo not drawn)	-3%	-19%
62	CCCNC(=O)c1cc2c(c(-c3cccc(-c4ccc(F)cc4)c3)n1)[C@H](CCO)N(S(=O)C(C)(C)C)C2 (stereo partly drawn)	8%	-22%
63	CCOC(=O)C1CCCN(C(=O)c2ccc(-c3ccccc3)cc2)CC1 (stereo not drawn)	-21%[18.4 µM]	12%
64	COc1cccc(C(=O)Nc2cc(C)on2)c1	-14%	48%[activator]
65	CCCNC(=O)C1(C)CCCN(Cc2ccc(-c3ccccc3)o2)C1 (stereo not drawn)	-7%	?
66	CCCCCNC(=O)C(c1ccc(OC)cc1)n1c(=O)c(-c2ccccc2)nc2ccccc21 (stereo not drawn)	13%	8%
67	O=C(NCCCN1CCCC1)c1ccc2c(c1)N(Cc1cccc(Cl)c1)C(=O)c1ccccc1S2(=O)=O	4%	-5%
68	C#CCN(C[C@H]1[C@H](OC(=O)NCC2CCCCC2)[C@H](OC(=O)NCC2CCCCC2)C[C@@H](C(=O)OC)[C@H]1C(=O)OC)S(=O)(=O)c1ccc(C)cc1	13%	0%
69	COc1cc(OC)nc(C(NC(=O)C2CCN(Cc3ccc(N(C)C)cc3)CC2)c2ccc(F)cc2)n1 (stereo not drawn)	4%	-20%
70	CC(c1nc2ccccc2[nH]1)N(C(=O)Cc1csc2ccccc12)c1cccnc1 (stereo not drawn)	0%	-2%
71	COCCN1C(=O)C(C(=O)OC)CC2=C1CC(C)(C)CC2=O (stereo not drawn)	11%	-8%
72	COC(=O)[C@]12CCCCC=C1N(Cc1ccc(Cl)cc1Cl)C(=O)[C@H](CC(=O)NCC13CC4CC(CC(C4)C1)C3)C2	2%	0%

Sorted by count of non-hydrogen atoms (highest first): 5 of the compounds above.
item	Structure	RE007 growth inh	2A StopGo
72	COC(=O)[C@]12CCCCC=C1N(Cc1ccc(Cl)cc1Cl)C(=O)[C@H](CC(=O)NCC13CC4CC(CC(C4)C1)C3)C2	2%	0%
69	COc1cc(OC)nc(C(NC(=O)C2CCN(Cc3ccc(N(C)C)cc3)CC2)c2ccc(F)cc2)n1 (stereo not drawn)	4%	-20%
63	CCOC(=O)C1CCCN(C(=O)c2ccc(-c3ccccc3)cc2)CC1 (stereo not drawn)	-21%[18.4 µM]	12%
65	CCCNC(=O)C1(C)CCCN(Cc2ccc(-c3ccccc3)o2)C1 (stereo not drawn)	-7%	?
64	COc1cccc(C(=O)Nc2cc(C)on2)c1	-14%	48%[activator]

Profiles, looked up by structure. Order of values: RE007 growth inh | 2A StopGo
CC(=O)NC(C)(c1ccccc1)c1nc(-c2cnc3ccccc3c2)cs1 (stereo not drawn) across the screens: 10%[18.4 µM] | 7%
CCN1C[C@@H]2[C@@H]3C(=O)N(Cc4ccccc4)C(=O)[C@@H]3[C@](Cc3ccccc3)(C1=O)N2C(=O)c1ccc(Cl)c(Cl)c1 across the screens: -7% | -23%
Cc1ccc(Cn2c(C)c(C(=O)NCc3ccc(Cl)c(Cl)c3)sc2=O)cc1 across the screens: 4%[18.4 µM] | -16%
O=C1Nc2ccccc2C(=O)N(Cc2ccccc2)C1C(=O)NC1CC1 (stereo not drawn) across the screens: 16% | -21%

The list continues:
item	Structure	RE007 growth inh	2A StopGo
73	CC(C)C[C@H]1CNC(=S)N1CC1CCCN1C[C@H](Cc1ccc(O)cc1)N1C[C@H](Cc2ccccc2)N(CC2CCCCC2)C1=S (stereo partly drawn)	1%	-9%
74	CC[C@@H]1Cc2[nH][nH]c(=O)c2[C@H](c2ccc(Cl)cc2)O1	-11%	-24%
75	O=C(NC(=S)Nc1ccccc1Br)C1CC1	-15%	11%
76	COC(=O)C1=C(C(=O)OC)[C@]2([C@H]3CC=CCN[C@@H](Cc4ccccc4)C(=O)N3Cc3ccccc3)C=C[C@H]1O2	-1%	-1%
77	O=S(=O)(Cc1ccccc1)C(c1ccccc1)S(=O)(=O)Cc1ccccc1	-12%	9%
78	O=C(Nc1nc([C@@H]2O[C@H](CO)[C@@H](O)[C@H](O)[C@H]2O)cs1)NC(c1ccccc1)c1ccccc1	-10%[18.4 µM]	-10%
79	CCc1nc2ccc(C(=O)N(CC)CCN(C)C)cn2c1N(C)Cc1ccc(OC)cc1	-11%	-15%
80	Fc1ccccc1N1CCN(C(c2ccnc3ccccc23)c2nnnn2-c2ccc3c(c2)OCCO3)CC1 (stereo not drawn)	32%	2%
81	CCOC(=O)C[C@H]1c2cc(F)ccc2S(=O)(=O)N1Cc1ccc(OC)cc1	-13%	-24%
82	CCc1nn(CCCC(=O)NC2CCCCC2C)c(=O)c2cc3occc3n12 (stereo not drawn)	-13%	10%
83	C[C@@H]1CN([C@@H](C)CO)C(=O)CCCn2nncc2CO[C@H]1CN(C)S(=O)(=O)c1ccc(Cl)cc1	-7%	-18%
84	C[C@@H]1C[C@H]2[C@@H]3C[C@H](F)C4=CC(=O)C=C[C@]4(C)[C@@]3(Cl)[C@@H](O)C[C@]2(C)[C@H]1C(=O)COC(=O)C(C)(C)C	6%[18.4 µM]	-19%
85	O=C(NC(c1ccc(Cl)cc1)c1ccsc1)C1CCN(CCOc2ccc(Cl)cc2)CC1 (stereo not drawn)	-3%	-24%
86	c1cn2c(-c3ccoc3)cncc2n1	16%[18.4 µM]	-12%
87	COc1cc(C(O)c2nc(-c3cnn(C)c3)cs2)ccc1F (stereo not drawn)	6%	-18%
88	COc1cccc(CNc2nc3cc(-c4ccc(C)cc4)sc3c(=O)n2C)c1OC	-4%[18.4 µM]	5%
89	O=C(Cn1nnc(-c2ccccc2)c1COc1ccc2ccccc2c1)NCC1CC1	-25%	-15%
90	Cc1ccc(C=C2C=C(c3ccccc3)OC2=O)cc1	-11%	42%[activator]
